From PubChem BioAssay
Sa growth 42C: S. aureus growth inhibition at 42 and 30 °C, primary screen, LtaS inhibitor project, RN4220, two temperatures | relative growth, % (no concentration beside the values) | OD600, 20 h, 42 °C; active compounds read low | AID 720641, 2013 | 0.53% of 170,000 active;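 active = growth at 42 °C up to 50% and 20 or more points under that at 30 °C, or under 10% at both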;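 note: 300 nL library stock went into each well; scaled to the means of positive and negative controls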
HCMV NEC inh: inhibitors of HCMV UL50-UL53 interaction, biochemical, HTRF; HCMV UL50-UL53 nuclear egress complex (human cytomegalovirus); AID 1918969, 2023; normalized percent inhibition; inhibition, % (no concentration beside the values); 0.15% of 190,000 active;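 active = both replicates at 50% or more, plus weaker picks with an unusually low signal ratio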;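 note: stock transfer was 100 nL into about 20 µL; 0% = negative control wells and 100% = wells with untagged competitor protein; inactives centre near -12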
GIV-Gai inh: inhibitors of GIV peptide binding to Galpha-i3, primary screen, biochemical, fluorescence polarization, FITC-GIV GBA peptide, rat Galphai3; Guanine nucleotide-binding protein G(i) subunit alpha-3 (Rattus norvegicus), P08753; AID 1224905, 2016; 90 min; active compounds read low; scaled: aluminum fluoride 0%, vehicle 100%; 0.42% of 210,000 active; percent of control (FP), % (test concentration not listed);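 active = replicate mean at 85% of control or lower, very high polarization wells dropped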;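 note: lower values mean more displacement of the GIV peptide from Galpha-i3; wells of about 15 µL received 100 nL stock; the first replicate is given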
Target sequence (P08753 whole entry, looked up): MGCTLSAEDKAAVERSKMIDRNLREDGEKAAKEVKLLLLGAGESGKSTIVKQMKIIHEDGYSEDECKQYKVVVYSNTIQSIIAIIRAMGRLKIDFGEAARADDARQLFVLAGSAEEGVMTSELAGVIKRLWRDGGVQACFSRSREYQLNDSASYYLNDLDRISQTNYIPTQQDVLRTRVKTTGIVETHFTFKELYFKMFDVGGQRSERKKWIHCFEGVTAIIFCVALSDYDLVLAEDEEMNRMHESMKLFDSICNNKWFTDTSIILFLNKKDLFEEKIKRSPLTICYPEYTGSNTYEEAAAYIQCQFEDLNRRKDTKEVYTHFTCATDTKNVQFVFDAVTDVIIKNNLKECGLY
Sa growth 42C second temp: further read-out of Sa growth 42C, marked with its call; relative growth, %; measured here: growth at 30 °C;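 optical density after 20 h as mean of two plates; 100% = untreated growth and lower means inhibition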
Starred values were filed as active, the others as inactive; . = no result given.

SMILES	Sa growth 42C	Sa growth 42C second temp	HCMV NEC inh	GIV-Gai inh
COc1ccc(N2CCN(C(=O)CN3C(=O)C4CCCCC4C3=O)CC2)cc1 (stereo not given)	.	.	-14.0	100.9
CCOc1ccc(NC(=O)CSc2nc3ccccc3c(=O)n2CCC(=O)NC2CCCCC2)cc1	90.2	99.7	.	109.0
O=C(NCc1cccs1)c1cc(-c2cccs2)on1	95.0	88.9	.	102.0
COC(=O)CCn1ccnc1C	98.7	97.5	-3.8	105.9
O=C(NC1CCCC1)C1CCN(c2ccc(Sc3ccc(Br)cc3)nn2)CC1	.	.	-28.0	106.6
COc1ccc2c(c1)NC(c1ccc(OCC(C)C)cc1)=NC(c1ccncc1)=N2	91.0	93.4	24.3	109.9
COc1ccc(C(CNC(=O)C(C)Oc2ccc(C)c(C)c2)N2CCCCC2)cc1 (stereo not given)	.	.	-15.6	105.0
N#Cc1nc(COc2cccc(Cl)c2)oc1NCCc1ccccc1	95.2	84.3	-14.5	98.4
Cc1cc(C)c2sc(NC(=O)c3ccc(S(=O)(=O)N4CCOCC4)cc3)nc2c1	90.3	89.5	.	102.7
Cn1c(CN(c2ccc(F)cc2)S(C)(=O)=O)nnc1SCC(=O)Nc1nccs1	.	.	-21.6	104.7
CCOc1ccc(NC(=O)CCCN2C(=O)C(c3ccccc3)Oc3cccnc32)cc1 (stereo not given)	104.2	86.2	.	103.6
CN(C)C1=NC(C(F)(F)F)(C(F)(F)F)N=C(c2ccccc2)O1	78.0	93.3	.	110.2
COc1cccc(Oc2c(C(F)(F)F)oc3cc(OC)ccc3c2=O)c1	83.3	88.2	.	101.2
Oc1c(/C=N/N2CCOCC2)cc2c3c1CCCN3CCC2	114.0	95.6	-32.5	.
S=C(c1ccc(-c2ccc(Cl)cc2)o1)N1CCOCC1	87.5	71.9	-4.4	98.1
Cn1nccc1NC(=O)CCC(=O)O	95.9	85.6	-20.8	99.0
O=C(c1ccc(-c2cccc(C(F)(F)F)c2)o1)N1CCOCC1	102.3	78.1	-27.1	103.9
CC(C)(C)c1ccc(-c2noc(CSc3n[nH]c(=O)n3C3CC3)n2)cc1	88.9	81.0	-22.6	107.2
CN(C)c1ccc(/C=C/C(=O)C(C(=O)c2ccccc2)=C2SCCS2)cc1	107.2	94.2	-7.8	.
O=C(NNc1ccc(F)cc1)c1cc(Cl)nc(OCC(F)(F)F)c1	94.1	78.9	-16.5	103.8
Cc1ccc(C(=O)NC2CCCCCCC2)cc1I	105.0	91.5	.	104.6
Cn1c(Oc2cccc(Cl)c2)nc2c1c(=O)n(Cc1ccccc1Cl)c(=O)n2C	118.3	96.2	2.1	106.2
COc1ccc(N2CCN(C(=O)CN(c3cccc(C(F)(F)F)c3)S(C)(=O)=O)CC2)cc1	125.0	110.0	1.1	100.3
CC(C)S(=O)(=O)/C(C#N)=C/N1CCC(C(F)(F)F)CC1	107.9	104.2	3.3	98.5
CC(C)NC(=O)CSc1nnc(CSc2cc(C(F)(F)F)nc3ccccc23)n1C	117.5	97.0	6.5	97.9

Exported with values under each structure: entries from further up
Every second line gives: Sa growth 42C | Sa growth 42C second temp | HCMV NEC inh | GIV-Gai inh
COC(=O)CCn1ccnc1C
 : 98.7 | 97.5 | -3.8 | 105.9
O=C(NC1CCCC1)C1CCN(c2ccc(Sc3ccc(Br)cc3)nn2)CC1
 : . | . | -28.0 | 106.6

The main list resumes, starting five compounds before the break.
SMILES	Sa growth 42C	Sa growth 42C second temp	HCMV NEC inh	GIV-Gai inh
Cc1ccc(C(=O)NC2CCCCCCC2)cc1I	105.0	91.5	.	104.6
Cn1c(Oc2cccc(Cl)c2)nc2c1c(=O)n(Cc1ccccc1Cl)c(=O)n2C	118.3	96.2	2.1	106.2
COc1ccc(N2CCN(C(=O)CN(c3cccc(C(F)(F)F)c3)S(C)(=O)=O)CC2)cc1	125.0	110.0	1.1	100.3
CC(C)S(=O)(=O)/C(C#N)=C/N1CCC(C(F)(F)F)CC1	107.9	104.2	3.3	98.5
CC(C)NC(=O)CSc1nnc(CSc2cc(C(F)(F)F)nc3ccccc23)n1C	117.5	97.0	6.5	97.9
COc1ccccc1-n1nc(-c2ccccc2)c2cnc3c(F)cc(F)cc3c21	85.4	103.6	8.4	107.6
COc1ccc(OC)c(S(=O)(=O)N(C(=O)c2ccccc2)c2ccc3oc(=O)sc3c2)c1	.	.	10.9	103.8
CC1Cc2ccccc2N1C(=O)COC(=O)c1ccccc1 (stereo not given)	103.3	88.9	-6.7	.
CCOc1ccc(CN(C)CC(=O)NC2(C#N)CCCC2)cc1	88.5	83.6	-27.2	.
Cc1ccc2oc(-c3cc(NC(=O)c4cccc5c(Br)cccc45)ccc3Cl)nc2c1	.	.	-11.0	104.4
COC(=O)c1c(C)oc2ccc(OCC#N)cc12	84.4	72.9	.	101.9
Cc1nnc(Nc2cccc(Cl)c2C)s1	100.4	86.3	-36.2	99.8
COCCNC(=O)c1ccccc1CSc1nc2ccccc2o1	103.3	92.6	-18.2	.
O=C(Cn1nnc(-c2ccccc2Cl)n1)Nc1ccc(Br)cc1	97.8	85.5	-53.7	102.2
Cc1ccc(NC(=O)CC2Sc3ccccc3NC2=O)cc1 (stereo not given)	100.8	91.3	-22.2	100.2
CCOC(=O)c1cnc2c(Cl)c(Cl)ccc2c1NCCN1CCOCC1	98.4	85.4	-59.4	104.8
Cc1ccc(C(=O)Nc2cc(C(C)(C)C)nn2C)cc1	77.2	82.2	-16.0	.
CC(C)(C)NC(=O)Cn1cc(S(=O)(=O)Cc2ccccc2Cl)c2ccccc21	114.3	86.2	.	105.1
O=C(c1ccc2c(c1)N(Cc1ccc(F)cc1)CCS2)N1CCCCC1	104.4	49.3	.	99.2
O=C(CN1CC(=O)Oc2ccccc21)OCC(=O)c1ccccc1	83.3	98.4	.	107.2
NS(=O)(=O)c1ccc(Nc2nc3nonc3nc2Nc2ccc(S(N)(=O)=O)cc2)cc1	71.4	62.8	-62.3	106.2
CC(C)(C)c1ccc(Oc2c(C(F)(F)F)oc3cc(OCC(=O)O)ccc3c2=O)cc1	.	.	-9.8	104.6
CCOc1ccc(CNCc2cn[nH]c2-c2ccccc2)cc1	92.1	91.1	.	103.0
CC1(C)CC(CCc2nc(=S)[nH][nH]2)C(=O)O1 (stereo not given)	95.8	85.3	.	107.6
COc1ccc(C2CC(c3ccccc3)=NN2S(=O)(=O)c2ccccc2)c(OC)c1 (stereo not given)	.	.	-0.6	103.2
CC1CN(C(=O)COC(=O)/C=C/c2ccccc2)CC(C)O1 (stereo not given)	84.2	82.1	-65.5	.
CCCN(C(=O)COc1ccccc1F)c1c(N)n(Cc2ccccc2)c(=O)[nH]c1=O	90.2	98.7	-5.7	.
Cc1cccc(N2CCN(CCNC(=O)c3c(C)nn(-c4ccc(F)cc4)c3-n3cccc3)CC2)c1C	105.2	81.9	-14.2	110.9
Nc1nc(Nc2ccc(Cl)cc2)n[nH]1	97.5	80.6	-6.2	98.1
Cc1ccoc1CC[N+](C)(C)C	80.5	104.4	-11.8	.

Four of the compounds above, comma-delimited:
Compound,Sa growth 42C,Sa growth 42C second temp,HCMV NEC inh,GIV-Gai inh
CC(C)(C)c1ccc(Oc2c(C(F)(F)F)oc3cc(OCC(=O)O)ccc3c2=O)cc1,.,.,-9.8,104.6
CC1Cc2ccccc2N1C(=O)COC(=O)c1ccccc1 (stereo not given),103.3,88.9,-6.7,.
CCCN(C(=O)COc1ccccc1F)c1c(N)n(Cc2ccccc2)c(=O)[nH]c1=O,90.2,98.7,-5.7,.
CCOc1ccc(CN(C)CC(=O)NC2(C#N)CCCC2)cc1,88.5,83.6,-27.2,.

Next section:
SMILES	Sa growth 42C	Sa growth 42C second temp	HCMV NEC inh	GIV-Gai inh
C=CCOc1cc(C)nc(-c2ccccc2O)n1	88.8	87.7	-4.1	96.4
CCc1ccc(NC(=O)CSc2nc3c(oc4ccccc43)c(=O)n2-c2cccc(C)c2)cc1	111.7	106.7	-19.5	103.5
O=C1Cc2cc(S(=O)(=O)N3CCCCC3)cc3c2N1CCC3	133.2	78.7	.	98.6
Cc1ccc(C(=O)CC(C(=O)O)n2cccn2)cc1 (stereo not given)	96.9	91.3	.	94.8
CCOc1ccc(NC(=O)CC2C(=O)N(c3ccccc3)C(=O)N2Cc2ccc3c(c2)OCO3)cc1 (stereo not given)	103.0	89.3	-39.1	102.5
c1ccc(N2CCN(c3nc4ccccc4n4cnnc34)CC2)cc1	92.5	97.1	13.3	102.1
COc1ccc(C(=O)Nc2ccc(-n3nncc3-c3ccccc3)cc2)cc1OC	133.5	86.5	.	104.4
O=C1OC(c2cc([N+](=O)[O-])ccc2Cl)=N/C1=C/c1cc(Br)cs1	.	.	-1.9	102.9
CCOC(=O)c1ccc2nc(NC(=O)CSC3=NC(=O)C(CC)C(=O)N3)sc2c1 (stereo not given)	97.0	88.3	-27.6	103.7
CCN(CC(=O)Nc1ccc2c(c1)OCCO2)CC(=O)c1c(C)[nH]c2ccccc12	60.3	59.1	-11.2	.
COc1ccccc1C(CCNCc1ccccc1)c1ccco1 (stereo not given)	97.7	82.1	.	99.3
CCOC(=O)CSc1nc2ccccc2c(=O)n1Cc1ccco1	97.1	89.4	-32.0	.
O=C(/C=C/c1ccc(F)cc1)N(CCO)Cc1ccccc1	116.3	85.9	-22.2	.
COc1cc(OC)c(-c2cc(C(=O)NCc3ccc(F)cc3)c3c(-c4ccccc4)[nH]nc3n2)cc1OC	122.0	91.0	.	107.0
COc1ccc(N2CCN(c3cc(C(=O)O)c4cc(NC(=O)c5ccc(C)cc5)ccc4n3)CC2)cc1	.	.	-29.4	102.6
CCOc1ccc(C(=O)N2CCC(Cc3ccccc3)CC2)cc1	122.5	75.5	-15.0	100.7
O=C(c1nc2ncccn2n1)N1CCN(C(c2ccccc2)c2ccccc2)CC1	107.7	95.5	-21.5	100.8
Clc1ccc(-n2ccc3ccccc32)cc1	106.6	93.1	-28.6	100.0
COc1ccc2[nH]c(=O)c(CN(C(=O)c3cccc(Cl)c3)c3ccccc3C)cc2c1	103.4	85.7	-8.2	104.8
Clc1ccc2c(c1)c1nc3ccccc3nc1n2Cc1nc2ccccc2o1	104.8	94.5	-4.6	101.3
CCCCC(CC)C(=O)Nc1nnc(C(C)C)s1 (stereo not given)	91.4	86.9	-28.8	102.1
Cc1ccc(C(=O)OC(c2ccccc2)c2nccc3ccccc23)cc1 (stereo not given)	109.7	98.7	.	101.9
Cc1cc(OCC(=O)Nc2ccc(N3CCN(C(=O)c4ccco4)CC3)cc2)cc(C)c1Cl	110.6	79.0	-16.3	104.7
COc1cccc(CN2C(=O)c3cc4occc4n3CC2(C)C(=O)NC2CCC(C)CC2)c1 (stereo not given)	.	.	-16.4	105.5
COc1cccc(-n2c(/C=C3\C(=O)N(C)c4ccc(Br)cc43)nc3ccccc3c2=O)c1	.	.	-17.2	102.7

Other records follow:
SMILES	Sa growth 42C	Sa growth 42C second temp	HCMV NEC inh	GIV-Gai inh
CC1=C(c2ccc(C)cc2)S(=O)(=O)NC1=NC(C)C12CC3CC(CC(C3)C1)C2 (stereo not given)	97.7	87.0	.	102.6
O=C(NCCc1csc(-c2ccc(C(F)(F)F)cc2)n1)C(=O)Nc1ccc(F)c(Cl)c1	109.4	84.7	.	100.5
Cc1ccc(-c2nnc(Nc3ccc(S(N)(=O)=O)cc3)c3ccccc23)cc1S(=O)(=O)N1CCOCC1	100.6	92.3	-19.8	107.0
Cc1ccc2nc(-c3ccc(C)o3)c(Nc3ccc4c(c3)OCO4)n2c1	88.0	75.7	-13.3	102.1
O=c1[nH]c(CSc2nnc(-c3cccnc3)n2-c2ccccc2)nc2ccccc12	94.2	86.3	6.5	104.1
CC1=C(C(C)C)Nc2nnnn2C1c1ccc(Br)cc1 (stereo not given)	118.7	107.9	-0.8	.
COC(=O)c1cc2c(-c3cccs3)nn(-c3ccccc3)c2n1Cc1cccc(C)c1	92.1	88.8	.	103.3
O=C(O)CNC(=O)c1cc(C(F)(F)F)cc(C(F)(F)F)c1	98.0	92.2	-26.4	109.4
Cc1ccc(Nc2cc3oc4cc(C)ccc4[nH]c3c3c(=O)c4ccccc4c(=O)c23)cc1	.	.	14.8	110.7
CCc1ccc(NC(=O)Cn2nc(C(F)(F)F)c3c2CCCC3)cc1	109.6	94.7	-10.7	104.0
CC(C#N)Sc1nc(C2CCCCC2)n(-c2ccccc2)n1 (stereo not given)	80.0	76.1	-9.7	.
CC(C)(C)OC(=O)NC1CCN(S(=O)(=O)c2ccc(Cl)cc2)CC1	93.0	89.3	-36.4	102.9
Cc1cc(=O)[nH]c(NNC(=O)NC2CCCCC2)n1	95.1	89.4	-1.1	.
O=C1Nc2ccccc2S(=O)(=O)N1Cc1ccccc1	102.5	101.8	-27.4	100.4
CCNC(=O)CN1C(=O)C2CCCCN2c2ccc(S(=O)(=O)N3CCCC3)cc21 (stereo not given)	.	.	-7.3	102.2
O=C(CSc1nnc(-c2ccncc2)n1Cc1ccco1)N(c1ccccc1)c1ccccc1	104.2	83.4	-25.6	105.1
NC(=O)CSc1ncnc2sc(-c3ccccc3)cc12	80.2	96.1	-25.1	.
Cc1nnc(SCC(=O)Nc2cc(C(F)(F)F)ccc2N2CCOCC2)n1C1CC1	78.1	87.9	-24.8	.
Cc1ccccc1-n1c(SCC(=O)c2ccccc2)nnc1-c1ccc(F)cc1	92.5	80.5	.	106.8
CCc1ccc(NC(=O)Cn2c(=O)n(CCC(=O)NCc3ccc4c(c3)OCO4)c(=O)c3ccccc32)cc1	96.5	90.7	-17.7	97.1
